Screens: PubChem BioAssay, several laboratories
PrP UTR inh = inhibition of PrP 5' UTR reporter expression | cell-based PrP 5' UTR mRNA reporter, plate reader | AID 488862, 2010 | actives 0.35% (n = 340,000) | inhibition, % (no concentration beside the values);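 active = every replicate at 50% or more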;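 note: 0 = median of the neutral control wells; tested in H4 reporter cells; numbers are from one replicate; inactives centre near -14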
Bead autofluor = counter-screen for toxin protease inhibitors: compound fluorescence; AID 624483; fluorescence intensity (no concentration beside the values); compound autofluorescence counterscreen, microsphere flow cytometry; hits give high values; actives 3.1% (n = 360,000);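 active = at least 3 SD above the mean of all compounds, about 16000 in these data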;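 note: 100 nL of 1 mM stock went into each well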
An asterisk follows results filed as active; & = joins results of further samples. A portion of the library; rates above refer to the full screens.

SMILES,PrP UTR inh,Bead autofluor
CC(=O)O[C@]1(C(C)=O)CC[C@H]2[C@@H]3C=C(C)C4=CC(=O)CC[C@@H]4[C@H]3CC[C@@]21C,8,5114
C=C[C@@H]1c2ccccc2N(S(=O)(=O)c2ccc(C)cc2)[C@H](c2ccc(OC(C)=O)cc2)C1(C#N)C#N,-19,4205
Nc1ncnc2c1ncn2[C@@H]1O[C@H](COP(=O)(O)OP(=O)(O)OP(=O)(O)O)[C@@H](O)[C@H]1O,-15,6116
Cn1c(=S)n(/N=C/c2ccc3c(c2)OCO3)c2ccccc21,-17,2257
O=C1CC[C@@H](O)CCN1CC[C@H](Sc1ccc(Br)cc1)c1ccccc1,-5,3280
COc1ccc(OCC(=O)NCc2nc(-c3ccccc3)no2)cc1,-20,3825
CC(=O)Nc1ccc(SC[C@H](Cc2ccccc2)N2CC[C@@H](C(C)(C)C)CCC2=O)cc1,-22,4459
C1CCN2CC3CC(CN4CCCC[C@@H]34)[C@H]2C1,-15,5750
COc1cc(OC)c2c(-c3ccccc3)cc(=O)oc2c1C(CCN1CCOCC1)c1ccc(N(C)C)cc1 (stereo unspecified),-3,3887
O=C(CNC(=O)OCc1ccccc1)NCC(=O)Oc1ccc([N+](=O)[O-])cc1,-23,4145
CCCCCCSc1cccc(-c2nc3ccc(Cl)cn3c2NCCCC)c1,-3,3605&6900
CCOC(=O)[C@H]1[C@H]2COc3ccc(OC)cc3[C@@H]2N2C(=O)CN(Cc3ccccc3)C(=O)[C@@]12C,-4,3985
COc1ccccc1CNCCS(=O)(=O)NCc1ccccc1OC,-12,3513
CCCC/C=C1/CCC(CN(C)C)C1=O (stereo unspecified),-11,2820
COc1ccc(NC(=O)Nc2cccc3c2O[C@H](CN(C)C(=O)NC(C)C)[C@@H](C)CN([C@H](C)CO)C3=O)cc1,-9,3076
C[C@H](CO)N1C[C@H](C)[C@@H](CN(C)C(=O)Nc2ccc(C(F)(F)F)cc2)Oc2c(NS(=O)(=O)c3ccccc3)cccc2C1=O,-19,4242
C[C@H]1COC(=O)[C@H](CC(=O)OC(C)(C)C)C/C=C\C[C@@H](CC(=O)N[C@@H](CO)Cc2ccccc2)C(=O)N1,-19,4147
COc1ccc(NC(=O)N(C)C[C@H]2Oc3c(NC(=O)Nc4ccc5c(c4)OCO5)cccc3C(=O)N([C@H](C)CO)C[C@@H]2C)cc1,4,3750
O=C1C(Cc2ccccc2)Nc2ncnc(N3CCc4ccccc4C3)c2N1Cc1ccccc1 (stereo unspecified),2,3407
CCOc1ccc2c(ccc(/C=C/c3cc(C)c4cccnc4c3O)[n+]2C)c1,19,1289
C[C@@H]1CN([C@@H](C)CO)C(=O)c2cccc(NS(C)(=O)=O)c2O[C@H]1CN(C)Cc1ccc(Oc2ccccc2)cc1,-15,3967
CC(CCNC(=O)c1ccccc1)(CCNC(=O)c1ccccc1)[N+](=O)[O-],-18,2966
O=C(OCC12CC3CC(CC(C3)C1)C2)c1ccc(NCc2cc(O)ccc2O)cc1,-23,4007
C[C@H](CO)N1C[C@H](C)[C@@H](CN(C)C(=O)Nc2ccccc2)Oc2c(NC(=O)NC3CCCCC3)cccc2C1=O,-29,4027

Single entries from the list.
For PrP UTR inh, CCOc1ccc2c(ccc(/C=C/c3cc(C)c4cccnc4c3O)[n+]2C)c1 is entered as 19
For PrP UTR inh, C[C@@H]1CN([C@@H](C)CO)C(=O)c2cccc(NS(C)(=O)=O)c2O[C@H]1CN(C)Cc1ccc(Oc2ccccc2)cc1 is entered as -15
For Bead autofluor, C[C@H](CO)N1C[C@H](C)[C@@H](CN(C)C(=O)Nc2ccccc2)Oc2c(NC(=O)NC3CCCCC3)cccc2C1=O is entered as 4027
For Bead autofluor, COc1ccccc1CNCCS(=O)(=O)NCc1ccccc1OC is entered as 3513
For Bead autofluor, COc1ccc(NC(=O)N(C)C[C@H]2Oc3c(NC(=O)Nc4ccc5c(c4)OCO5)cccc3C(=O)N([C@H](C)CO)C[C@@H]2C)cc1 is entered as 3750
For Bead autofluor, O=C(OCC12CC3CC(CC(C3)C1)C2)c1ccc(NCc2cc(O)ccc2O)cc1 is entered as 4007

In the list so far, these contain a tert-butyl group:
SMILES,PrP UTR inh,Bead autofluor
CC(=O)Nc1ccc(SC[C@H](Cc2ccccc2)N2CC[C@@H](C(C)(C)C)CCC2=O)cc1,-22,4459
C[C@H]1COC(=O)[C@H](CC(=O)OC(C)(C)C)C/C=C\C[C@@H](CC(=O)N[C@@H](CO)Cc2ccccc2)C(=O)N1,-19,4147

(next part)
SMILES,PrP UTR inh,Bead autofluor
CC(C)c1cc(N=O)cc(C(C)C)c1O,4,3784
Cc1[nH]c2ccccc2c1C(=O)COC(=O)C1CC(O)CN1S(=O)(=O)c1ccc(Cl)cc1 (stereo unspecified),-17,2965
CC1=C(N2CC2)C(=O)C(CO)=C(N2CC2)C1=O,98*,3732
Cc1c(O)c(C)c2c(c1O)C(=O)C[C@@H](c1ccccc1)O2,-7,3466
C[C@H]1COC(=O)[C@@H](CC(=O)OC(C)(C)C)C/C=C\C[C@@H](CC(=O)N(CCO)Cc2ccccc2)C(=O)N1,6,3136
COC(=O)C1=C(c2cccc(C#N)c2)C[C@@H]2CC[C@H]1N2C(=O)NCc1cccc2ccccc12,-20,4324
COc1ccc(/C=C\C(=O)O[C@@H]2C(O)C(O[C@@H]3OC(C)[C@H](O[C@@H]4OCC(O[C@H]5O[C@H](CO)[C@@H](O)C(O)C5O)C(O)C4O)C(O)C3O)[C@H](OC(=O)[C@]34CCC(C)(C)C[C@@H]3C3=CCC5[C@@]6(C)CC(O)C(O[C@@H]7OC(CO)C(O)[C@H](O)[C@H]7O)[C@@](C)(C(=O)O)C6CC[C@@]5(C)[C@]3(CO)CC4)O[C@H]2C)cc1 (stereo partly specified),-21,4005
O=C(C[C@@H]1C/C=C\C[C@@H](Cc2ccc(F)cc2)C(=O)OC[C@@H](Cc2ccccc2)NC1=O)N[C@H](CO)Cc1ccccc1,-22,3452
CC(CCC(=O)O)C1CCC2C3CC(O)C4CC(O)CC[C@]4(C)C3CCC12C (stereo partly specified),-15,4120
COc1ccc(CN(CCc2c[nH]c3ccccc23)Cc2ccc(OC)cc2)cc1,18,4106
O=C1C[C@H]2CCCCC(=O)N3CC[C@@H](C1)[C@@H]23,-26,3159
NC(=O)c1ncn([C@@H]2O[C@H](CNCc3ccc(-c4cc(C(F)(F)F)ccc4Cl)o3)[C@@H](O)[C@H]2O)n1,-13,3924
COC(=O)C(Cc1ccc(O)cc1)NC(=O)Cn1cc(C)c(=O)[nH]c1=O (stereo unspecified),1,4129
C=CC[C@@H](Cc1ccc(F)cc1)C(=O)OC[C@@H]1CCCN1C(=O)[C@@H](CC=C)CC(=O)N[C@H](CO)Cc1ccccc1,-14,4055
C[C@@]12C(=O)Nc3ccc(Cl)cc3C(=O)N1[C@H]1c3cc(Br)ccc3OC[C@@H]1[C@@H]2c1ccccc1,-10,2945
CN(Cc1ccco1)c1ncnc2ccc(-c3ccc4c(ccn4C)c3)cc12,-28,2404
C=CC[C@H](CC(=O)OC(C)(C)C)C(=O)OC[C@H]1CCCN1C(=O)[C@H](CC=C)CC(=O)NCCO,-19,3615
Cc1ccc2c(c1)C(=C(C#N)C#N)CCN2,-11,4405
Cc1ccc(S(=O)(=O)N2[C@@H](c3ccccc3)C(C(=O)O)=CC[C@H]2c2cccc(C)c2)cc1,-20,3529
C=CCNC(=S)N1N=C(c2ccco2)CC1c1ccco1 (stereo unspecified),-2,4193
O=C(C1CCCN(S(=O)(=O)c2ccc(F)cc2)C1)N1CCOCC1 (stereo unspecified),-53,3803
CCOP(=O)(Nc1ccc2c(c1)C(=NNC(N)=S)c1ccccc1-2)OCC,-9,3636
c1ccc(CNC2CCCCCCC2)cc1 (tested in a mixture with another compound),-17,2964
CCOc1ccc(CCN2C(=S)N([C@@H](CC(C)C)CN3CCCC3CN3C(=S)NC[C@@H]3CC(C)C)C[C@@H]2Cc2ccccc2)cc1 (stereo partly specified),-30,3047
O=C(NCc1ccco1)c1cc(S(=O)(=O)N2CCCCC2)ccc1Cl,-18,3803
COCCNC(=O)N1[C@H]2CC[C@@H]1C(C(=O)OC)=C(c1ccc(OC(F)(F)F)cc1)C2,7,3014
CCN1CCCC1CNC(=O)Cn1cc(C)c(=O)[nH]c1=O (stereo unspecified),-2,3078
CC(=O)Nc1ccc(NC(=O)COC(=O)c2ccc([N+](=O)[O-])o2)cc1,-7,2675
COc1ccc(-c2cccc3c2C2CC3CCN2C(=O)OCc2ccccc2)cc1 (stereo unspecified),-34,3471
COc1ccc(C2=CC(=O)C[C@H](c3ccc4c(c3)OCO4)C2)cn1,-7,3336
COc1ccc(NC(=O)N(O)C2(C#N)CCCCC2)cc1,-39,3797
COCc1c(C(=O)OCC(=O)N2CCCC2=O)oc2ccccc12,-17,2842
Cc1ccc2c(c1)[C@H]1[C@H](CO2)[C@H](c2ccccc2)[C@]2(C)C(=O)N(C)CC(=O)N12,5,2907
COc1ccc([C@H]2CC(=O)C=C(c3ccc(C)cc3)C2)cc1OC,-3,3924
O=C(C[C@@H]1C/C=C/CC[C@H](Cc2ccc(F)cc2)C(=O)OC[C@@H](Cc2ccccc2)NC1=O)N[C@H](CO)Cc1ccccc1,-11,4116
CN(C)CCNCCCNc1c2ccccc2nc2cccc([N+](=O)[O-])c12,95*,3035
CC[C@@H](C)[C@@H]1CN([C@@H](C)CN2CCC[C@H]2CN2C(N)=NC[C@@H]2Cc2ccccc2)C(=N)N1CCCC1CCCC1,4,3152
c1ccc2c(C[C@@H]3CNCCN3CCC34CC5CC(CC(C5)C3)C4)cccc2c1,-56,4763
O=C1NCCOC(=O)[C@H](Cc2ccc(F)cc2)CC/C=C/C[C@H]1CC(=O)N(CCO)Cc1ccccc1,-22,2859
O=C(N[C@@H]1C/C=C\C[C@@H](CC(=O)N(CCO)Cc2ccccc2)C(=O)NC[C@H](c2ccccc2)OC1=O)OCC1c2ccccc2-c2ccccc21,5,3950
O=C(O)c1ccc(N/N=C/c2cn(-c3ccccc3)nc2-c2cccs2)cc1,-40,3970
C=CCC[C@H](Cc1ccc(F)cc1)C(=O)OC[C@@H](NC(=O)[C@H](CC=C)CC(=O)NCCO)c1ccccc1,-13,3992
CC1=C/C(=C(/c2ccc(O)c(C)c2)c2ccccc2S(=O)(=O)O)C=CC1=O,-12,4410
COC1=CC(=O)c2ccccc2C1=O,-9,5112
CC(C)(C)OC(=O)C[C@@H]1C/C=C\C[C@@H](CC(=O)N(CCO)Cc2ccccc2)C(=O)NC[C@H](c2ccccc2)OC1=O,-17,3588
Cc1cn(CC(=O)N[C@H](C)c2cccc3ccccc23)c(=O)[nH]c1=O,-29,3917
CCCSc1ccc([C@H]2N[C@@](C)(C(=O)OC)[C@H]3C(=O)N(CC)C(=O)[C@@H]23)cc1,5,3912
NCC[C@H](O)C(=O)N[C@@H]1C[C@H](N)[C@@H](O[C@H]2O[C@H](CN)[C@@H](O)[C@H](O)[C@H]2O)[C@H](O)[C@H]1O[C@H]1O[C@H](CO)[C@@H](O)[C@H](N)[C@H]1O,-19,5400
O=C(Nc1cccc(C(=O)N2CCCC2)c1)C1CCCCC1,-7,3837
C[C@H]1CN=C(N(C)C)N1CCc1ccc(F)cc1,-16,3691
CC(=O)c1ccc(NS(=O)(=O)c2ccc([N+](=O)[O-])cc2)cc1,-36,4023
N#Cc1c(NCCN)nc(NCc2ccccc2)c2c1CCN(Cc1ccccc1)C2,-2,2702
Brc1ccc2ncc3ccccc3c2c1,-1,3245
C=CC[C@@H](Cc1ccc(F)cc1)C(=O)OC[C@H]1CCCN1C(=O)[C@@H](CC=C)CC(=O)N[C@H](CO)Cc1ccccc1,-10,3032
O=C1c2ccccc2-c2c1c1ccccc1c(=O)n2CCO,-1,3114
CCOc1cc2c(cc1O)C(=NO)CC1C2CCC2(C)C(O)CCC12 (stereo unspecified),18,3134
N=c1c(S(=O)(=O)c2ccccc2)cc2c(=O)n3ccccc3nc2n1C1CCCCC1,-18,3721
O=C(Nc1ccc(C(F)(F)F)cc1[N+](=O)[O-])O[C@H]1[C@H](Cc2ccccc2)NS(=O)(=O)[C@H]2C[C@@H]3C=C[C@]12O3,6,3981
COc1ccccc1N1CCN(CCCN2C(=O)C3CCCCN3C2=O)CC1 (stereo unspecified),-40,4091
COC(=O)C1=CO[C@@H](O[C@@H]2O[C@H](CO)[C@@H](O)[C@H](O)[C@H]2O)C2C1CC(O)O[C@H]2C (stereo partly specified),-38,4056

Overlap with the part before: two compounds; new compounds follow.
SMILES,PrP UTR inh,Bead autofluor
COc1ccccc1N1CCN(CCCN2C(=O)C3CCCCN3C2=O)CC1 (stereo unspecified),-40,4091
COC(=O)C1=CO[C@@H](O[C@@H]2O[C@H](CO)[C@@H](O)[C@H](O)[C@H]2O)C2C1CC(O)O[C@H]2C (stereo partly specified),-38,4056
Fc1ccc(/C=N/Nc2ccccn2)cc1,-39,1989
CCOC(CN=c1nc(N(C)C)ss1)OCC,21,3888
CCc1cc(Cn2nc(-c3ccccc3)cc2C(=O)NCc2cccc(Br)c2)on1,-8,3846
COc1ccc(S(=O)(=O)N(C)C[C@H]2Oc3c(NC(=O)C4CCCCC4)cccc3C(=O)N([C@H](C)CO)C[C@@H]2C)cc1,-10,4041
C[C@H](CO)N1C[C@H](C)[C@@H](CN(C)C(=O)Nc2ccc(C(F)(F)F)cc2)Oc2ccc(NS(=O)(=O)c3cn(C)cn3)cc2C1=O,-7,2917
O=C1CC2C(CCC23OCCO3)c2ccc3ccccc3c21 (stereo unspecified),-54,3221
